Sa growth 42C – blocks Staphylococcus aureus growth; S. aureus RN4220 growth, OD600, 20 h, 42 °C; stronger effect = lower value; relative growth, % (concentration not given with the values); 170,000 tested, 0.53% active;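 active = growth at 42 °C up to 50% and 20 or more points under that at 30 °C, or under 10% at both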;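 also: 300 nL library stock went into each well; scaled to the means of positive and negative controls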
GIV Gai3 FP – inhibitors of GIV GBA-motif binding to rat Galpha-i3. Galpha-i3/FITC-GIV peptide fluorescence polarization, 90 min; stronger effect = lower value; scaled: aluminum fluoride 0%, vehicle 100%. P08753. 210,000 tested, 0.42% active. AID 1224905. percent of control (FP), % (concentration not given with the values);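 active = replicate mean at 85% of control or lower, very high polarization wells dropped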;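 also: wells of about 15 µL received 100 nL stock; the first replicate is given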
Target sequence (P08753 whole entry, looked up): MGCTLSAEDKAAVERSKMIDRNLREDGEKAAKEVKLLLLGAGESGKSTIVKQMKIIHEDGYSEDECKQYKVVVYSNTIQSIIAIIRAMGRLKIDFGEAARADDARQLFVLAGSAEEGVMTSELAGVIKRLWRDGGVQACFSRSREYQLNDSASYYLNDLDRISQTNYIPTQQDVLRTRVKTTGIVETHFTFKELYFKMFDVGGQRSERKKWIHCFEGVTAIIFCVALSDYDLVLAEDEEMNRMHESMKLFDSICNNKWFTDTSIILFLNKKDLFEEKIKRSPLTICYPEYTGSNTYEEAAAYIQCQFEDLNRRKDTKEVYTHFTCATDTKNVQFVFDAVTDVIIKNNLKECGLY
HCMV UL50-53 inh – disrupts HCMV UL50-UL53 complex binding | HTRF UL50-UL53 interaction, normalized percent inhibition | inhibition, % (test concentration not listed) | 190,000 tested, 0.15% active;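 active = both replicates at 50% or more, plus weaker picks with an unusually low signal ratio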;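 also: stock transfer was 100 nL into about 20 µL; 0% = negative control wells and 100% = wells with untagged competitor protein; inactives centre near -12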
Sa growth 42C second temp – recorded beside Sa growth 42C, whose call it bears; relative growth, %; measured here: growth at 30 °C;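 optical density after 20 h as mean of two plates; 100% = untreated growth and lower means inhibition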
Numbers without * were called inactive; x = not tested or not shown; & = joins results of further samples.

Codes: A = Sa growth 42C; B = Sa growth 42C second temp; C = GIV Gai3 FP; D = HCMV UL50-53 inh
O=C(NCc1cccc(Cl)c1)C1CCCN(c2nn3cc(-c4ccc(F)cc4)nc3s2)C1 (stereo not given)
  A: 220; B: 124; C: 103; D: x
Cc1nn(-c2cc(N3CCCC3)ncn2)c(C)c1CCC(=O)NCCC1=CCCCC1
  A: x; B: x; C: 94; D: -5
COc1ccc(-c2nc3ccccc3n3c(-c4cccc(C)c4)c4c(=O)n(C)c(=O)n(C)c4c23)cc1
  A: 94; B: 90; C: 103; D: -12
COc1cc(-c2cc3n(C)c(C)c(CCC(=O)NC4CCCCC4)c(=O)n3n2)cc(OC)c1OC
  A: 94; B: 86; C: 100; D: x
O=c1c(S(=O)(=O)c2ccc(F)c(F)c2)c[nH]c2cc(F)ccc12
  A: x; B: x; C: 108; D: -11
Cc1ccccc1-c1nc(-c2ccccn2)no1
  A: 91; B: 72; C: 105; D: -11
O=C(Cc1ccc(Cl)cc1)NCc1ccc2[nH]c3c(c2c1)CCCC3
  A: 115; B: 94; C: 99; D: x
N/C(Cc1ccc(Oc2c(Cl)cncc2Cl)cc1)=N\O
  A: 114; B: 100; C: 110; D: 0
CCOc1ccccc1NC(=O)N1CCCC(c2nc3c(nnn3Cc3ccc(C)cc3)c(=O)[nH]2)C1 (stereo not given)
  A: 95; B: 77; C: 101; D: -5
Nc1nc2ccccc2n1Cc1ccccc1F
  A: 102; B: 82; C: x; D: -11
COc1ccccc1CNC(=O)C1(C)Cn2c(cc3ccsc32)C(=O)N1c1cccc(Cl)c1 (stereo not given)
  A: x; B: x; C: 105; D: -33
O=S1(=O)CCC(N=Nc2c(O)[nH]c3ccc(Br)cc23)C1 (stereo not given)
  A: 105; B: 81; C: x; D: -57
O=C(NCCc1nc2ccccc2n1Cc1ccc(Cl)cc1)c1ccccc1
  A: 110; B: 103; C: 100; D: 0
COc1ccccc1N1C(=O)C(=Cc2ccco2)C(=O)N(c2ccccc2OC)C1=O
  A: x; B: x; C: 126; D: -16
CS(=O)(=O)N1CCCc2cc(C(=O)CSc3nnc(COc4ccccc4Cl)o3)ccc21
  A: 65; B: 87; C: x; D: -29
Cn1c(NCc2ccccc2)cc(=O)n(C)c1=O
  A: 106; B: 69; C: 104; D: -1
Cc1ccc(NC(=O)C2C(=O)N(CCO)C3(C)CC2c2ccccc2O3)c(C)c1 (stereo not given)
  A: 100; B: 94; C: x; D: -2
O=C(NCc1ccc2c(c1)OCO2)C1CCCN(S(=O)(=O)c2cnc[nH]2)C1 (stereo not given)
  A: 75; B: 94; C: 110; D: 2
Cc1nc(-c2cccc(F)c2)sc1CCNC(=O)C1CCCCC1
  A: x; B: x; C: 100; D: 3
O=C(Nc1cccc(F)c1)C1=NS(=O)(=O)c2ccccc2N1
  A: x; B: x; C: 100; D: -26
CC(=O)N1Cc2ccccc2CC1C(=O)Nc1ccc(S(=O)(=O)N(C)C)cc1 (stereo not given)
  A: 79; B: 87; C: x; D: -33
CC(C)C(=O)NC(c1ccc(N(C)C)cc1)c1ccc2cccnc2c1O (stereo not given)
  A: 14; B: 9; C: 103&106; D: -8
Cc1ccc2c(c1)cc(C(=O)Nc1cccnc1)n2C
  A: x; B: x; C: 100; D: -25
COc1cc(OC)cc(C(=O)Nc2ccccn2)c1
  A: 109; B: 73; C: x; D: -6
O=C(Nc1cccnc1)c1noc2c1CCCC2
  A: 82; B: 90; C: 102; D: x
N#CCOC(=O)c1nc(-c2ccccc2)n(-c2ccccc2)n1
  A: 97; B: 97; C: x; D: 1
CN(C)c1ccc(CNCCC2(O)CCOC(C)(C)C2)cc1 (stereo not given)
  A: 98; B: 90; C: 101; D: -16
CP(C)(=O)c1ccccc1C(=O)O
  A: 99; B: 98; C: 106; D: 19
Clc1ccccc1-c1nc(-c2ccc3nonc3c2)no1
  A: 79; B: 97; C: 104; D: -15
Cc1cccc(N2CCN(S(=O)(=O)c3cc(C(=O)Nc4ccc(Oc5ccccc5)cc4)ccc3F)CC2)c1C
  A: 122; B: 97; C: 105; D: x
COc1cc(OC)cc(C(=O)NCc2ccc3c(c2)CCN3C(=O)c2ccccc2)c1
  A: 99; B: 89; C: 105; D: x
OC(COc1ccccc1)CSc1nc2ccccc2o1 (stereo not given)
  A: 102; B: 86; C: x; D: -22
CCCNC(=O)Nc1ccccc1C
  A: 99; B: 89; C: 111; D: -10
O=c1[nH]n(-c2ccccn2)c(=O)c2ccccc12
  A: 79; B: 91; C: x; D: -35
COc1cccc(C(=O)N2CCN(Cc3cccc(C)c3)CC2)c1OC
  A: 112; B: 113; C: 104; D: 4
CCCC(=O)Oc1ccc2oc(-c3ccc(OC)cc3)cc(=O)c2c1
  A: 107; B: 55; C: 104; D: x
Cc1nc2c(C(=O)NCCN3CCOCC3)cnn2c(C)c1Cc1cccc(Cl)c1
  A: 86; B: 90; C: 105; D: -24
O=C(Nc1ccc(-c2nc3ccccc3s2)c(O)c1)c1ccccc1F
  A: x; B: x; C: 98; D: -19
COc1ccc(/C(O)=C2\NS(=O)(=O)c3ccccc3C2=O)cc1OC
  A: 121; B: 87; C: 93; D: -57
Cc1nnc2c3ccccc3nc(N3CCN(c4ccccc4)CC3)n12
  A: 113; B: 97; C: 105; D: 9
COc1ccc2[nH]c3c(=O)n(CC(=O)N4CCN(c5ccc(F)cc5)CC4)c(=S)[nH]c3c2c1
  A: 104; B: 92; C: 99; D: x
Cc1ccc(N2CC(c3nnc(Cc4ccc(Cl)cc4)o3)CC2=O)cc1 (stereo not given)
  A: 95; B: 55; C: 107; D: 6
CC(=O)Nc1ccc(S(=O)(=O)N2CCCCC2C(=O)O)cc1 (stereo not given)
  A: 114; B: 95; C: x; D: -14
CCOC(=O)c1cnc2c(C)c(C)ccc2c1NCCCCCO
  A: 123; B: 79; C: 104; D: -16
Cc1nnsc1C(=O)Oc1ccc(-c2n[nH]nc2C#N)cc1
  A: 70; B: 82; C: 106; D: -56
Cc1c(F)cccc1NS(=O)(=O)c1ccc2c(c1)CCN2S(C)(=O)=O
  A: 89; B: 79; C: 103; D: -26
CC1Oc2ccccc2C=C1/C=C(\C#N)C(=O)N1CCCCC1 (stereo not given)
  A: 82; B: 71; C: 106; D: -47
O=C(Nc1ccc(Cl)cc1)c1snnc1-c1ccccc1
  A: x; B: x; C: 103; D: -19
CCOC(=O)CSc1nc(-c2ccc3c(c2)OCO3)ccc1C#N
  A: 111; B: 109; C: 97; D: -34
COc1ccc(-c2nc3c4ccccc4n(CC(=O)Nc4cc(F)ccc4F)c(=O)n3n2)cc1
  A: 117; B: 83; C: 96; D: x

Arranged by molecular weight (ascending): 18 of the compounds above.
Codes: A = Sa growth 42C; B = Sa growth 42C second temp; C = GIV Gai3 FP; D = HCMV UL50-53 inh
CP(C)(=O)c1ccccc1C(=O)O
  A: 99; B: 98; C: 106; D: 19
O=c1[nH]n(-c2ccccn2)c(=O)c2ccccc12
  A: 79; B: 91; C: x; D: -35
OC(COc1ccccc1)CSc1nc2ccccc2o1 (stereo not given)
  A: 102; B: 86; C: x; D: -22
N#CCOC(=O)c1nc(-c2ccccc2)n(-c2ccccc2)n1
  A: 97; B: 97; C: x; D: 1
CC1Oc2ccccc2C=C1/C=C(\C#N)C(=O)N1CCCCC1 (stereo not given)
  A: 82; B: 71; C: 106; D: -47
Cc1nnsc1C(=O)Oc1ccc(-c2n[nH]nc2C#N)cc1
  A: 70; B: 82; C: 106; D: -56
O=C(Nc1ccc(Cl)cc1)c1snnc1-c1ccccc1
  A: x; B: x; C: 103; D: -19
CC(=O)Nc1ccc(S(=O)(=O)N2CCCCC2C(=O)O)cc1 (stereo not given)
  A: 114; B: 95; C: x; D: -14
CCCC(=O)Oc1ccc2oc(-c3ccc(OC)cc3)cc(=O)c2c1
  A: 107; B: 55; C: 104; D: x
Cc1nnc2c3ccccc3nc(N3CCN(c4ccccc4)CC3)n12
  A: 113; B: 97; C: 105; D: 9
COc1cccc(C(=O)N2CCN(Cc3cccc(C)c3)CC2)c1OC
  A: 112; B: 113; C: 104; D: 4
COc1ccc(/C(O)=C2\NS(=O)(=O)c3ccccc3C2=O)cc1OC
  A: 121; B: 87; C: 93; D: -57
O=C(Nc1ccc(-c2nc3ccccc3s2)c(O)c1)c1ccccc1F
  A: x; B: x; C: 98; D: -19
Cc1ccc(N2CC(c3nnc(Cc4ccc(Cl)cc4)o3)CC2=O)cc1 (stereo not given)
  A: 95; B: 55; C: 107; D: 6
Cc1c(F)cccc1NS(=O)(=O)c1ccc2c(c1)CCN2S(C)(=O)=O
  A: 89; B: 79; C: 103; D: -26
COc1cc(OC)cc(C(=O)NCc2ccc3c(c2)CCN3C(=O)c2ccccc2)c1
  A: 99; B: 89; C: 105; D: x
COc1ccc(-c2nc3c4ccccc4n(CC(=O)Nc4cc(F)ccc4F)c(=O)n3n2)cc1
  A: 117; B: 83; C: 96; D: x
Cc1cccc(N2CCN(S(=O)(=O)c3cc(C(=O)Nc4ccc(Oc5ccccc5)cc4)ccc3F)CC2)c1C
  A: 122; B: 97; C: 105; D: x

The list goes on:
Codes: A = Sa growth 42C; B = Sa growth 42C second temp; C = GIV Gai3 FP; D = HCMV UL50-53 inh
CCC(=O)N1N=C(c2c(O)n(C)c(=S)n(C)c2=O)CC1c1cc(OC)ccc1OC (stereo not given)
  A: x; B: x; C: 106; D: 6
Cc1cccc(C(=O)n2nc(-c3ccco3)nc2NCc2ccccc2)c1
  A: 111; B: 87; C: 100; D: -28
CC1CCCCN1c1nn2nnnc2c2ccccc12 (stereo not given)
  A: 108; B: 80; C: 107; D: -18
Cc1cc(N2CCN(C)CC2)nc2ccc(NC(=O)c3ccccc3F)cc12
  A: 101; B: 90; C: 105; D: 13
Cc1c2cnn(CC(=O)NCC(C)c3ccccc3)c(=O)c2c(C)n1Cc1cccc(Cl)c1 (stereo not given)
  A: 101; B: 80; C: 103; D: -25
Fc1ccc(C2c3cccn3CCN2C(=S)Nc2cccc(F)c2)cc1 (stereo not given)
  A: 93; B: 85; C: 99; D: x
Cc1ccc(-c2nc(-c3cc4cccc(OCc5ccc(F)cc5)c4oc3=O)no2)cc1
  A: 90; B: 87; C: 100; D: -14
CCOC(=O)c1sc2nc(CSc3nc(C)cc(=O)[nH]3)cc(=O)n2c1C
  A: 80; B: 89; C: 104; D: -2
CCOC(=O)C1=C(O)/C(=C/c2ccco2)SC1=Nc1cccc(Cl)c1
  A: 83; B: 48; C: 128; D: -37
Cc1ccc(Cn2c(CNS(=O)(=O)c3ccc(C(C)(C)C)cc3)nc3cccnc32)cc1
  A: 106; B: 105; C: 108; D: x
O=C(O)c1csc(-c2ccccc2)n1
  A: 102; B: 97; C: x; D: -4
CCOc1ccc(-n2cc(-c3ccccc3)c3c(N4CCC(C)CC4)ncnc32)cc1
  A: 115; B: 90; C: 100; D: x
CN(C)C(=S)NCCC1=CCCCC1
  A: 93; B: 85; C: 96; D: 30
CCOC(=O)c1ccc(NS(=O)(=O)c2ccc3c(c2)OCCO3)cc1
  A: 109; B: 101; C: 105; D: -4
CC1CCCC(Nc2c(-c3ccc(Cl)cc3)nc3c(C#N)c[nH]n23)C1C (stereo not given)
  A: 63; B: 65; C: 99; D: x
COc1ccc(OC)c(NC(=O)COc2ccc(-c3noc(-c4ccccc4)n3)cc2OC)c1
  A: x; B: x; C: 105; D: -33

Screening data deposited in PubChem by ICCB-Longwood Screening Facility, Harvard Medical School.
